Compound activity (PubChem)
PrP UTR inh: inhibition of PrP 5' UTR reporter expression | 340,000 tested, 0.35% active | inhibition, % (concentration not given with the values) | cell-based PrP 5' UTR mRNA reporter, plate reader | AID 488862, 2010;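 active = every replicate at 50% or more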;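 note: 0 = median of the neutral control wells; tested in H4 reporter cells; numbers are from one replicate; inactives centre near -14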
Mtb hypoxia inh: PubChem AID 1159583; M. tuberculosis hypoxia-regulated fluorescent reporter, fluorescence; fluorescence inhibition, % (no concentration beside the values); 300,000 tested, 0.1% active;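 active = 35 to 45% if threefold the growth effect, above 45% if 1.5-fold the growth effect; inactive = the rest, general growth blockers included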;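 note: wells of about 50 µL received 100 nL stock; 0% = vehicle wells and 100% = reference inhibitor wells; whole bacteria with a GFP reporter of the hypoxia response; strong numbers were not always called active; many hits fall short of the cut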
BJeLR lethal: MLPCN primary cell-based screen for lethality selective to Ras in HRASV12 cells; BJeLR (HRASV12) viability, CellTiter-Glo ATP luminescence, 48 h; reference of the scale not given here; inhibition, % (no concentration beside the values); 300,000 tested, 0.17% active; AID 1554, 2009;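 active = replicate mean above 50%; inconclusive = above 50% but judged a plate artefact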;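 note: 50 nL library stock added to about 25 µL; numbers are from one replicate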
Sa ugtP lethal: growth inhibition of ugtP-null S. aureus, primary screen, RN4220 ugtP deletion, OD600. 16 h; some inactives read as strong as hits. 330,000 tested, 0.54% active. growth inhibition, % (no concentration beside the values);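 active = z-score under -3 and OD600 up to 0.15 on both plates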;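 note: plate controls were untreated wells for no effect and antibiotic for full effect; wells of about 80 µL received 100 nL stock; the first replicate is given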
RN4220 kill: growth inhibition of S. aureus RN4220, primary screen, OD600. 16 h. inhibition, % (concentration not given with the values). 330,000 tested, 0.33% active;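 active = z-score of -3 or lower and OD600 up to 0.18 on both plates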;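 note: plate controls were untreated cells for no effect and reference antibiotic for full effect; stock transfer was 100 nL into about 80 µL; one replicate is shown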
Autofluor counter: flagged as autofluorescent in microsphere protease counterscreen; fluorescence intensity (no concentration beside the values); compound autofluorescence counterscreen, microsphere flow cytometry; active compounds read high; 360,000 tested, 3.1% active;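 active = at least 3 SD above the mean of all compounds, about 16000 in these data; inconclusive = too few beads counted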;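 note: 100 nL of 1 mM stock went into each well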
Mtb hypoxia inh growth: also measured in Mtb hypoxia inh; calls as there; growth inhibition, %; measured here: M. tuberculosis growth (absorbance);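 0% = vehicle and 100% = reference antibiotic; read after six days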
* = called active by the depositor; ? = inconclusive; / = not tested or not shown. Random draw from the library. Share with any hit: about 4.1%.

SMILES	PrP UTR inh	Mtb hypoxia inh	Mtb hypoxia inh growth	BJeLR lethal	Sa ugtP lethal	RN4220 kill	Autofluor counter
CCC(=O)c1ccc(OC(=O)c2ccc(Br)o2)cc1	-44	/	/	0	7	7.8	2401
COCc1cc(=O)[nH]c(N=C(N)Nc2ccc(C)cc2)n1	/	11	7	/	-1	3.7	/
COc1cccc(C(=O)C(C#N)=NNc2cccc(-c3ccnc(C)n3)c2)c1	/	6	7	/	48	57	/
CC(=O)Nc1ccc(S(=O)(=O)Nc2ccc(S(=O)(=O)Nc3nc(C)cc(C)n3)cc2)cc1	-18	1	-14	0	5	0.9	3056
O=C(c1cc(S(=O)(=O)N2CCOCC2)ccc1Cl)N1CCc2ccccc2C1	-5	17	13	3	4	1.0	7022
COc1ccc(NC(=S)NC(NC(=O)c2ccc(Cl)cc2Cl)C(Cl)(Cl)Cl)c([N+](=O)[O-])c1 (stereo unspecified)	-31	3	-7	0	-20	-18	7792
Fc1ccc(/C=N/N2CCN(Cc3ccccc3)CC2)cc1	-32	/	/	-2	/	/	3319
O=C(CCC(=O)N1CCCC1)Nc1ccc([N+](=O)[O-])cc1	-25	0	-4	-3	2	2.1	3177
CCN1/C(=C2\SC(=S)N(Cc3ccccc3)C2=O)Sc2ccccc21	-13	-5	-2	-13	-7	-3.3	2672
COc1cc(OC)c(OC)cc1/C=C(\C#N)C(=O)NCc1cccs1	-6	3	0	7	1	1.9	5418
O=C(NCc1ccc2c(c1)OCO2)c1cc2ncc(Br)cn2n1	-12	/	/	/	-3	0.6	2399
O=C(O)c1cc(-c2ccc(/C=N/NC(=S)Nc3ccccc3)o2)ccc1Cl	-3	/	/	0	/	/	4225
CCOC(=O)c1[nH]c(C)c(CN(CCc2ccccc2)C(=O)CCC(=O)O)c1C	1	/	/	-1	0	0.1	4577
Cc1ccc(-c2cc(C(=O)Nc3ccccn3)c3ccccc3n2)o1	-21	4	5	11	11	-1.3	6149
COCCn1c(SCC(=O)Nc2cccc(C)n2)nnc1-c1ccco1	-29	0	0	-5	5	10	4315
CCOc1ccc(C(=O)NC(=S)Nc2ccccc2OC)cc1[N+](=O)[O-]	-19	-2	6	2	7	0.0	2533
COc1ccc(CCNC(=O)CSc2nc3sc(C(=O)O)c(C)c3c(=O)[nH]2)cc1OC	1	5	3	8	4	1.6	5701
COc1ccc(Nc2nc(N3CCCC3)nc3ccccc23)c(OC)c1	-7	21	17	15	-20	3.6	10336
CC(=O)Nc1ccc(Nc2nc(-c3ccccc3)nc3ccccc23)cc1	-17	2	-1	3	-9	-6.7	2575
CCN(CC)C(=O)C1CCCN(Cc2ccccc2C(F)(F)F)C1 (stereo unspecified)	-6	10	12	-7	-3	7.5	23390*
COc1ccc(NC(=O)CCCN2C(=O)/C(=C\c3ccco3)SC2=S)cc1	-10	13	7	-11	13	-2.5	2020
CCCCN(CCCNC(=O)c1ccc(CS(=O)(=O)c2ccc(OC)cc2)o1)Cc1ccccc1	-10	1	-1	-3	6	0.8	5192
Cc1cccc(C(=O)Nc2ccc(O)cc2)c1	-25	/	/	-2	-4	2.4	4080
O=C(NN=Cc1ccccc1Br)c1ccc(CSc2cccc3cccnc23)cc1	/	14	2	/	-13	7.3	/
Nc1ccc(S(=O)(=O)Nc2ccnn2-c2ccccc2)cc1	-8	6	-1	7	1	9.5	4318
Cc1nn(CCC(=O)NNC(=S)Nc2ccc(F)cc2)c(C)c1[N+](=O)[O-]	-14	2	22	5	-4	0.0	22117*
O=C(N/N=C/c1cccnc1)c1ccc(Cl)c(Cl)c1	-27	/	/	2	/	/	6259
COc1ccc(CCC(C)NCCc2ccccc2)cc1 (stereo unspecified)	-35	8	1	2	7	2.6	4466
CCN(CC)S(=O)(=O)c1ccc(C(=O)NCC(c2cccs2)N2CCOCC2)cc1 (stereo unspecified)	4	4	1	15	0	-1.6	4190
Cc1ccc(-n2ncc3c(NCc4cccnc4)ncnc32)cc1C	-45	4	0	9	9	5.0	4163
O=S(=O)(c1cccc2cccnc12)N1CCN(c2ccc(F)cc2)CC1	-6	5	8	1	5	5.3	4803
O=C(NCC1CCCCC1)c1cc2ccccc2cc1O	-52	4	4	3	-9	25	/
Cc1ccc(-c2cc(C(=O)N/N=C\c3cnn(C)c3C)c3ccccc3n2)cc1C	-13	/	/	-15	/	/	4772
CCN(CC)CCn1c2c(c(SCC(=O)Nc3nc(C)cs3)nc1=O)CCCC2	-7	12	8	3	2	0.2	6336
CC1(C)C(=O)OC(c2ccccc2)C2(CCCC2)C1=O (stereo unspecified)	12	/	/	8	7	1.6	2266
O=[N+]([O-])c1ccc(S(=O)(=O)NNC(=S)NCCc2ccccc2)cc1	-11	1	0	-8	2	4.5	5165
CCOC(=O)C1=NN(c2ccccc2C)C2=NC(C)=C(C(=O)OC)C(c3cccc(OC)c3)N12 (stereo unspecified)	-23	/	/	-4	/	/	10898
COc1ccc(NC(=O)CCN2C(=O)c3ccccc3S2(=O)=O)c(OC)c1	-17	-3	6	-5	11	1.9	1932
O=C(O)C1CC(=O)N(CCOc2ccccc2)C1 (stereo unspecified)	-18	7	12	8	-1	0.2	2477
COc1ccc(CN2CCCN(C)CC2)c(OC)c1C	-16	-1	9	1	-4	3.1	3326
COc1ccccc1C(=O)NC(=O)COC(=O)CNC(=O)c1ccccc1F	-26	10	2	/	1	1.5	3091
CC(=O)Nc1cccc(NC(=O)C(=O)NCC(c2ccco2)N2CCc3ccccc32)c1 (stereo unspecified)	-17	-4	5	7	7	0.7	?
COC(=O)CN(c1ccc(C(C)C)cc1)S(=O)(=O)c1c(C)[nH]c(=O)[nH]c1=O	-40	/	/	3	0	0.9	6147
C=CCn1c(=NC(=O)CC)n(C)c2ccccc21	-21	2	-1	-13	2	-1.4	1973
COc1ccc(Cc2noc(CN(C)CC(O)c3ccccc3)n2)cc1OC (stereo unspecified)	-35	10	5	-1	8	4.1	2823
CCCOC(=O)c1ccc(Oc2coc3c(CN(CC)CC)c(O)ccc3c2=O)cc1	9	1	3	-4	14	4.8	2384
COc1ccc2[nH]c(=O)c(CN(Cc3ccccc3)C(=S)NCC3CCCO3)cc2c1 (stereo unspecified)	-71	11	9	1	0	2.5	3862
CCO[C@H]1OC(C(=O)Nc2ccccc2)=C[C@@H](C)[C@@H]1CCCO	-6	/	/	-10	/	/	2937

Compound profiles, from the list above. Screens in order: PrP UTR inh, Mtb hypoxia inh, Mtb hypoxia inh growth, BJeLR lethal, Sa ugtP lethal, RN4220 kill, Autofluor counter
`COc1ccc(CN2CCCN(C)CC2)c(OC)c1C` is entered as -16, -1, 9, 1, -4, 3.1, 3326
`COc1ccc(Cc2noc(CN(C)CC(O)c3ccccc3)n2)cc1OC` (stereo unspecified) is entered as -35, 10, 5, -1, 8, 4.1, 2823
`COC(=O)CN(c1ccc(C(C)C)cc1)S(=O)(=O)c1c(C)[nH]c(=O)[nH]c1=O` is entered as -40, /, /, 3, 0, 0.9, 6147
`C=CCn1c(=NC(=O)CC)n(C)c2ccccc21` is entered as -21, 2, -1, -13, 2, -1.4, 1973

New compounds follow.
SMILES	PrP UTR inh	Mtb hypoxia inh	Mtb hypoxia inh growth	BJeLR lethal	Sa ugtP lethal	RN4220 kill	Autofluor counter
CCCn1c(SCC(=O)Nc2nnc(C(C)C)s2)nc2c1c(=O)n(C)c(=O)n2C	-40	1	1	1	-4	2.0	11392
CC1(C)C2CCC1(CS(=O)(=O)NCc1ccc(C(=O)O)cc1)C(=O)C2 (stereo unspecified)	-17	1	0	-4	9	5.8	3360
CCNC(=O)NC1(C(=O)Nc2ccc3c(c2)OCCO3)CCCCC1	-25	/	/	1	5	-0.1	3217
O=[N+]([O-])c1ccc(N2CCN(c3nc(-c4ccc(Cl)cc4)cs3)CC2)cc1	-14	8	0	7	-10	4.8	3989
CC1C(=O)Nc2ccccc2N1C(=O)c1ccc(F)cc1 (stereo unspecified)	/	-1	7	1	6	1.4	3489
CCCCN(C)C(=S)Nc1ccc2nc3n(c(=O)c2c1)CCCCC3	2	16	20	-1	9	0.8	3495
COc1ccc(SC[C@H](Cc2ccccc2)N2CCN(C)CCC2=O)cc1	-3	/	/	-2	/	/	3859
CCOc1ccc(OCCSc2nc3ccccc3[nH]2)cc1	-12	12	11	0	14	0.3	10751
COc1ccc(OC)c(S(=O)(=O)n2nc(-c3ccccc3)cc2N)c1	-47	-2	-7	-6	-17	-2.0	6146
COc1ccc(CCNC(=O)C2CCC(=O)N(C3CC3)C2)c(OC)c1 (stereo unspecified)	-25	3	-10	3	9	-0.2	7123
O=C(O)CCCCCNC(=O)CCn1nnc2ccccc2c1=O	-23	5	10	-15	0	1.0	21187*
COCCCNC(=O)c1cccc(S(=O)(=O)N2CC3(C)CC2CC(C)(C)C3)c1 (stereo unspecified)	-18	/	/	3	/	/	?

Looked up one by one from above (four):
SMILES	PrP UTR inh	Mtb hypoxia inh	Mtb hypoxia inh growth	BJeLR lethal	Sa ugtP lethal	RN4220 kill	Autofluor counter
O=C(O)CCCCCNC(=O)CCn1nnc2ccccc2c1=O	-23	5	10	-15	0	1.0	21187*
COc1ccc(OC)c(S(=O)(=O)n2nc(-c3ccccc3)cc2N)c1	-47	-2	-7	-6	-17	-2.0	6146
CCOc1ccc(OCCSc2nc3ccccc3[nH]2)cc1	-12	12	11	0	14	0.3	10751
CCCCN(C)C(=S)Nc1ccc2nc3n(c(=O)c2c1)CCCCC3	2	16	20	-1	9	0.8	3495

The list goes on:
SMILES	PrP UTR inh	Mtb hypoxia inh	Mtb hypoxia inh growth	BJeLR lethal	Sa ugtP lethal	RN4220 kill	Autofluor counter
O=C(C1=C[C@@H](C2CCCCC2)C[C@@H](OCCCCO)O1)N1CCN(Cc2ccccc2)CC1	-65	/	/	-6	/	/	3930
COc1ccccc1NC(=O)NC1CCS(=O)(=O)C1 (stereo unspecified)	-5	9	-3	-6	4	1.8	3827
CCOC(=O)c1ccccc1NC(=O)c1ccc2c(=O)n3c(nc2c1)CCCCC3	-18	8	12	6	17	14	4728
COc1ccc(NC(=O)c2cccc(S(=O)(=O)NCc3ccccc3)c2)cc1S(N)(=O)=O	-6	-3	1	/	-1	2.7	3925
Cc1cc2nc3c(=O)n(CCc4ccccc4)c(=O)[nH]c3nc2cc1N	-5	-20	2	7	4	3.3	3506
COc1cc2c(cc1OC)CN(C(=O)CN(C)S(=O)(=O)c1ccc(NC(C)=O)cc1)CC2	4	12	2	-1	1	-1.4	4150
CC/C(=N\Nc1ccccc1)c1c(O)n(-c2ccc(OC)cc2)c(=O)[nH]c1=O	-39	18	2	-3	2	2.9	5959
Cn1c(=O)c2c(ncn2CC(=O)N/N=C/c2ccc(Br)s2)n(C)c1=O	1	/	/	-2	/	/	2844
COc1ccc(C2NC(=O)CCC2[N+](=O)[O-])cc1 (stereo unspecified)	-14	1	-2	-2	6	4.3	3886
CC1CCc2c(c3ccccc3n2C(=O)CCl)C1 (stereo unspecified)	1	13	8	-2	12	4.9	3846
CCC(C)C(NC(=O)c1ccccc1NC(=O)c1ccco1)C(=O)NC1CCCCC1 (stereo unspecified)	-12	11	6	2	-2	6.2	3153
O=C(NC1CC1)c1cccc(S(=O)(=O)N2CCOCC2)c1	-3	-10	0	/	-4	-3.1	3923
COCCn1c(=S)[nH]c2cc(C(=O)NCC3CCCO3)ccc2c1=O (stereo unspecified)	-3	4	5	-20	14	2.7	7965
NS(=O)(=O)c1ccc(CNC(=O)CCC2CCCCC2)cc1	1	/	/	6	3	3.4	4704
COCCC(=O)N1CCC(n2nccc2NC(=O)CCc2ccccc2)CC1	0	/	/	-10	/	/	6118

An excerpt from above in order of length of the SMILES, smallest number first.
SMILES	PrP UTR inh	Mtb hypoxia inh	Mtb hypoxia inh growth	BJeLR lethal	Sa ugtP lethal	RN4220 kill	Autofluor counter
O=C(NC1CC1)c1cccc(S(=O)(=O)N2CCOCC2)c1	-3	-10	0	/	-4	-3.1	3923
Cc1cc2nc3c(=O)n(CCc4ccccc4)c(=O)[nH]c3nc2cc1N	-5	-20	2	7	4	3.3	3506
CCC(C)C(NC(=O)c1ccccc1NC(=O)c1ccco1)C(=O)NC1CCCCC1 (stereo unspecified)	-12	11	6	2	-2	6.2	3153
